Rango dissoc inh – inhibition of RanGTP-driven Rango-importin beta dissociation | O95149+P62826 | Biochemical FRET Rango-importin beta, RanGTP-induced dissociation | Potency, µM (doses to about 46.1 µM), for inactives: at the top dose activity change, negative = inhibition | actives 0.071% (n = 340,000); active means falling FRET ratio curve, often poorly fitted, with flat reads before Ran was added; inconclusive means other falling curves, or compound fluorescence or quenching; inactive means flat or rising ratio curve;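 also: potency is read from the fitted curve at half-maximal effect; % of control where 0% means no effect; nearly all actives have a fitted effect of over 45% in size; -100% = wells without RanGTP and RCC1; the record marks most hits as doubtful in a second field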
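Rango/importin beta premix (0.1/0.25 uM final), PBS + 1 mM DTT + 0.02% Tween-20 + 0.1% BSA; cpd 5 min RT; FRET pre-read; + RanGTP-RCC1 (0.6 uM Ran, 2 mM GTP, 0.2 uM RCC1); 45 min RT; FRET post-read, ex 430, em 486/530 nm.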
miR-21 FLuc – miR-21 reporter, rising signal | HeLa miR-21 FLuc reporter, luciferase, 48 h | Potency, µM (series often up to 38.3 µM), for inactives: top-dose reporter change, positive = more light | 340,000 tested, under 10 active | AID 2288; active = well fitted rising curve with a large enough effect; inconclusive = small, poorly fitted or top-dose-only effect; inactive = no such curve, though single readings can be large or run the other way;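 also: % of control where 0% means no effect; miR-21 action dims this reporter so a rising signal means less miR-21 action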
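Using DMEM plus 10% FBS, HeLa miR-21-FLuc cells are incubated with test compounds (final up to about 40uM) for 48 hours; firefly luciferase signal is then imaged following reagent-mediated lysis.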
GLA inh pH 4.5 – alpha-galactosidase A (human) inhibition, pH 4.5; 230,000 tested, under 10 active; activity change, negative = inhibition, % at 105 µM; AID 1467; purified enzyme, 4-MU-alpha-Gal fluorescence, pH 4.5; inconclusive = small, poorly fitted or top-dose-only inhibition, or a rising curve; inactive = flat fitted curve, though single readings scatter; no compound was filed as active;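 also: 0% = full activity with enzyme and -100% = basal without enzyme; dose as in the result columns while the protocol names 77 µM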
Rango complex inh – Rango-importin beta binding inhibition | Q14974 | Rango CFP/YFP FRET sensor + importin beta, 45 min | Potency, µM (highest dose often 92.2 µM), for inactives: at the highest dose inhibition of complex formation | actives 0.031% (n = 340,000) | AID 540263; active = rising FRET ratio curve, often small or poorly fitted; inconclusive = mostly compound fluorescence or quenching in the first reads; inactive = flat curves in all reads;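 also: potency is read from the fitted curve at half-maximal effect; 0% = DMSO wells and 100% = buffer wells lacking importin beta; nearly all actives have a fitted effect of over 15% in size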
Target sequence (Q14974 whole entry, looked up): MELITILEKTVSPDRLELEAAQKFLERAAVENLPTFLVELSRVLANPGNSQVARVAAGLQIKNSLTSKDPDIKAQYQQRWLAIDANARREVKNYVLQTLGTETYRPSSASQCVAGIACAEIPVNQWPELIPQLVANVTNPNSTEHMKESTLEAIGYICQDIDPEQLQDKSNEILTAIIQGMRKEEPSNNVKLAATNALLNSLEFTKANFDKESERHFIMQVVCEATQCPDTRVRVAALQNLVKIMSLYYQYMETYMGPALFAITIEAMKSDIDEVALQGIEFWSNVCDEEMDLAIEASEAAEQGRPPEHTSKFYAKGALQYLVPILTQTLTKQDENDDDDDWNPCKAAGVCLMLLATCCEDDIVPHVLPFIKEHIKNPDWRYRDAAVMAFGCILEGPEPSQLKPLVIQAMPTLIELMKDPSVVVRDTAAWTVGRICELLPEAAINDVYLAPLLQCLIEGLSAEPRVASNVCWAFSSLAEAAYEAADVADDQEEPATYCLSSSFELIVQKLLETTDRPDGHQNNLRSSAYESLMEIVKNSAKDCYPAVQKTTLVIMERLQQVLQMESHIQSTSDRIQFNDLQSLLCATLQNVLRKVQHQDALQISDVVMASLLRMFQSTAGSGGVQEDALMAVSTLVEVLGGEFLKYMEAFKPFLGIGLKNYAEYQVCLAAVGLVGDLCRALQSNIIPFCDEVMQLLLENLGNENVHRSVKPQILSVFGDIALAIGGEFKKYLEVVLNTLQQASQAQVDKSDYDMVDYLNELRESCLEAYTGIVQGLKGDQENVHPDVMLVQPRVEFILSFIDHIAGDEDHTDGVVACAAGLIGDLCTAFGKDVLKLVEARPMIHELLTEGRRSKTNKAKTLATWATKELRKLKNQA
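FRET biosensor (snurportin 1 IBB flanked by EYFP and cerulean), 50 nM, with compound 5 min, then 0.125 microM importin beta in PBS, 1 mM DTT, 0.02% Tween-20, 0.1% BSA. CFP/YFP ratio read after 45 min at room temperature; pre-read flags interference.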
An asterisk follows results filed as active; ? = inconclusive; nt = not tested or not shown; & = joins results of further samples. Only part of the results is shown; the hit share may differ from the screen's.

miR-21 FLuc	Rango complex inh	GLA inh pH 4.5	Rango dissoc inh	mol
-5%	3.2%	-18	4%	COc1cc(NC(=O)CSc2nnnn2Cc2ccccc2)cc(OC)c1
nt	-2.5%	nt	-17%	CC(OC(=O)Cc1c[nH]c2ccccc12)C(=O)Nc1ccccc1[N+](=O)[O-] (centres undefined)
-3%	-1.2%	2	10%	O=C(Cn1cnc2c(nnn2Cc2ccc(F)cc2)c1=O)NCc1ccc(F)cc1
-32%	1.1%	-2	3%	C/C(N)=C(/C#N)C(=O)CSc1nnc(-c2ccc3c(c2)OCO3)o1
-24%	-1.6%	nt	-2%	Cc1cnc(NC(=O)COc2ccc3c(c2)CCC3)s1
-11%	4.4%	-3	4%	CC1=Nn2c(nnc2C2CCCCC2)SC1
-9%	2.8%	4	-13%	CCOc1cc(NC(=S)NCCCN2CCOCC2)c(OCC)cc1NC(=O)C1CC1
-11%	-1.2%	-3	-13%	O=C(NC(=S)Nc1ccccc1)c1cc([N+](=O)[O-])ccc1N1CCOCC1
nt	-3.4%	nt	-14%	O=C(COc1ccc(Cl)cc1)NCc1n[nH]c(=O)c2ccccc12
23%	4.2%	?	-17%	OCCC1CN(Cc2nc(-c3ccccc3)cs2)CCN1Cc1ccc(F)cc1 (centres undefined)
1%	-4.5%	nt	-10%	O=C(NCCOc1ccc(F)cc1)C1CCC(=O)N(CCCN2CCOCC2)C1 (centres undefined)
-15%	0.1%	-14	5%	c1ccc2c(CSCCc3ccncc3)cccc2c1
nt	2.4%	-9	7%	COc1cc(C2CC(=O)Oc3ccc(C(C)(C)C)cc32)cc(OC)c1OC (centres undefined)
-15%	-3.5%	-1	-3%	CN1CCN(c2nc(-c3cccnc3)nc3scc(-c4ccccc4)c23)CC1
-1%	1.3%	2	?	O=c1c2ccccc2c(-c2ccccc2)nn1-c1ccccn1
7%	0.4%	nt	1%	O=C1CCC(=O)N1c1ccc(S(=O)(=O)Nc2ccc(Br)cc2)cc1
-5%	1.8%	5	-12%	CCCCS(=O)(=O)C(=C1Nc2ccccc2N1)S(=O)(=O)CCCC
3%	-0.8%	-9	2%	CCOc1ccc(-n2c(SCC(N)=O)nc3c(c2=O)SCC3)cc1
-3%	nt	-16	nt	O=C(Nc1nnc(-c2ccccc2)s1)c1ccc(Cl)c(S(=O)(=O)N2CCOCC2)c1
-13%	?	nt	?	COc1ccc(-c2nnc(-c3cc4c(ccc5ccccc54)oc3=O)o2)cc1
-7%	-0.9%	-11	9%	CCOc1ccc(NC(=S)N(CCc2c(C)[nH]c3ccccc23)Cc2ccco2)cc1
0%	-1.1%	nt	-1%	CC(NC(=O)c1ccc([N+](=O)[O-])cc1Cl)C1CC2CCC1C2 (centres undefined)
?	4.5%	nt	9%	CC(=O)c1cc(CN2CCC(C(=O)Nc3cccc(-c4cscn4)c3)CC2)cs1
3%	0.9%	nt	5%	Cc1ccc(CNC(=O)CCN2C(=O)[C@@H]3Cc4ccccc4CN3C2=O)cc1
1%	5.8%	4	-7%	O=C(CN(c1ccc(F)cc1)S(=O)(=O)c1ccccc1)NCc1ccco1
11%	0.9%	nt	12%	Cc1cccc(NC(=S)NCCc2ccccc2)c1C
nt	?	nt	-22%	CC(C)(C)CN1CCNC[C@H]1Cc1cccc2ccccc12
-11%	3.8%	-2	-1%	Cc1ccc2nc(NC(=O)C3CCN(S(=O)(=O)c4cnc[nH]4)CC3)sc2c1
-1%	2.5%	-1	-6%	COc1ccc(CNC(=O)C(NC(C)=O)C(=O)Nc2ccc(C(C)C)cc2)cc1 (centres undefined)
-8%	2.4%	1	1%	CCOc1ccc(C(C)NC(=O)c2cccnc2OCC)cc1OCC (centres undefined)
-1%	-0.3%	0	-6%	c1ccc(-c2cc3c(ccc4nonc43)nn2)cc1
-11%	-2.2%	-1&3	14%	CN(C)/C=N/c1cc(=O)[nH]c(=O)n1C
-2%	0.3%	9	-10%	O=C(CCN1C(=O)COc2ccccc21)NCCN1CCN(c2ccccc2F)CC1
-6%	-2.3%	0	3%	Cc1ccc(C(=O)NC2CC(C)(C)NC(C)(C)C2)cc1C
-1%	2.0%	9	-4%	Cc1ccc(OCc2nnc(SCC(=O)Nc3nccs3)n2-c2ccccc2)cc1C
2%	0.2%	7	-8%	Cc1ccc2c(c1)C(=O)CC1(CCCC1)O2
4%	-1.0%	nt	0%	O=C(Cn1ncc2c([nH]c3ccccc32)c1=O)Nc1cccnc1
1%	7.0%	nt	1%	COc1ccc(/C=C/C(=O)NCC(=O)N=Nc2c(O)[nH]c3ccc([N+](=O)[O-])cc23)cc1
0%	0.2%	4	-4%	CCOc1ccc(NC(=O)C(CC(=O)O)Cc2ccccc2)cc1 (centres undefined)
nt	-0.2%	nt	-2%	Nc1ncnc2c1ncn2[C@@H]1O[C@H](CNCc2c(OCc3ccccc3F)ccc3ccccc23)[C@@H](O)[C@H]1O
-4%	-0.4%	nt	-7%	CC(O)c1nc2ccccc2n1C(C)c1ccccc1 (centres undefined)
-1%	-0.4%	-14	-8%	Nc1nnc(-c2ccncc2)s1
-9%	0.4%	1	-7%	COC(=O)C(C)n1nc(C)n(-c2ccc(C)cc2)c1=O (centres undefined)
4%	0.2%	0	6%	CCCCC(=O)N(c1ccc(C(=O)O)cc1)c1nc(-c2ccc(Cl)cc2)c(CC)s1
-14%	?	-9	?	COc1ccc(CN2C(=O)c3ccccc3C(/C=N/OCc3ccc(Cl)cc3)C2=O)cc1 (centres undefined)
-10%&-15%	0.9%	nt	4%	COc1ccc(CCNC(=O)c2cn(C)c3ccc(S(=O)(=O)N4CCOCC4)cc3c2=O)cc1OC
-7%	3.5%	4	10%	O=C1Nc2ccccc2N(O)N1c1cc(-c2cccc(Cl)c2)no1
0%	-0.1%	-2	1%	CCOC(=O)N1CCN(C(=O)CN(C)S(=O)(=O)c2ccc3c(c2)C(C)(C)C(=O)N3C)CC1
21%	6.3%	0	3%	Cc1cccc(NC(=O)c2cc([N+](=O)[O-])ccc2Cl)c1O
-11%	?	nt	?	N#C/C(=C\c1ccc(O)c(O)c1)C(=O)Nc1cccc2ncccc12

Further results.
miR-21 FLuc	Rango complex inh	GLA inh pH 4.5	Rango dissoc inh	mol
0%	9.8%	-1	-28%	Cc1[nH]nc2c1/C(=N\O)CC(C)(C)C2
-8%	4.0%	-1	1%	CCOC(=O)C(=CNc1cccc(N)n1)C(=O)OCC
-9%	?	-2	36%	Cn1cc([N+](=O)[O-])c(C(=O)NCc2ccccc2)n1
nt	1.9%	nt	20%	O=C(NCCNC(=O)c1ccc(F)cc1)c1ccc(F)cc1
-1%	-2.4%	-3	1%	Cc1ccccc1-n1c(SCC(=O)N(C)C2CCS(=O)(=O)C2)nnc1-c1ccncc1 (centres undefined)
-1%	0.5%	-6	1%	CCN=C1SC(C(=O)Nc2cccc(Br)c2)CC(=O)N1CC (centres undefined)
nt	-1.1%	nt	7%	O=[N+]([O-])c1cccc(-c2c(-c3ccccc3)ncc3ccc(F)cc23)c1
-1%	-3.3%	3	-13%	CCC(C)NC(=O)C(=O)NCC1CCCN1CC (centres undefined)
11%	-1.1%	nt	-3%	CCOC(=O)C1CCCCN1S(=O)(=O)c1cc2c(cc1C)NC(=O)CO2 (centres undefined)
0%	4.5%	-8	17%	CCN(CC)S(=O)(=O)c1ccc(Cl)c(NC(=O)COC(=O)c2ccc(O)cc2)c1
-4%	-1.7%	nt	-8%	COc1ccccc1N1CCN(CCN2C(=O)C3CCCCN3C2=O)CC1 (centres undefined)
-7%	-2.3%	3	0%	COc1ccc(C(=O)N/N=c2\oc3ccccc3cc2C(=O)NCc2ccccc2)cc1
nt	?	nt	-1%	O=S(=O)(O)c1cc(Cl)cc(N=Nc2ccc(O)cc2O)c1O
4%	-1.9%	0	-7%	CSc1nc(N)nc(C(C)C)n1
1%	nt	-3	nt	CCOC(=O)N1CCN(C(=O)CSc2nnc(-c3ccc(Cl)s3)o2)CC1
-11%	-2.2%	-2	-1%	COc1cccc(C(=O)Nc2cc3c(cc2C(C)=O)OCCO3)c1
-5%	nt	6	nt	CCOC(=O)c1cc(-c2ccc(C)c([N+](=O)[O-])c2)nc2c1c(=O)n(C)c(=O)n2C
-1%	5.3%	4	-5%	CCC(CC)NC(=O)c1cc([N+](=O)[O-])ccc1N1CCOCC1
nt	-0.2%	nt	4%	O=C(NCC1COc2ccccc2O1)C1CCN(S(=O)(=O)c2ccccc2)CC1 (centres undefined)
-22%	-1.3%	-3	1%	CCC(=O)Nc1nc(CC(=O)Nc2ccccc2OC)cs1
-3%	1.4%	-1	1%	CC(C)c1ccc(NC(=O)COc2ccc(C3SCCS3)cc2)cc1
0%	0.7%	2	14%	COc1ccc(CCNC(=O)c2ccc3c(c2)NC(=O)C(N2CCOCC2)S3)cc1OC (centres undefined)
0%	-2.0%	nt	-9%	Cc1nn(S(=O)(=O)c2ccc(F)cc2)c(C)c1S(=O)(=O)N1CCOCC1
nt	-0.4%	nt	-14%	O=C(NCC1CCCCC1)c1cccc(S(=O)(=O)N2CCCC2)c1
-39%	-0.9%	-4	-4%	COc1cccc(C2=NOC(C(=O)Nc3ccc(C(C)=O)cc3)C2)c1 (centres undefined)

Only Rango dissoc inh, for some of the entries so far:
SMILES | Rango dissoc inh
O=[N+]([O-])c1cccc(-c2c(-c3ccccc3)ncc3ccc(F)cc23)c1 | 7%
CCC(C)NC(=O)C(=O)NCC1CCCN1CC (centres undefined) | -13%

4 compounds already listed, sorted by SMILES length, ascending.
miR-21 FLuc	Rango complex inh	GLA inh pH 4.5	Rango dissoc inh	mol
-8%	4.0%	-1	1%	CCOC(=O)C(=CNc1cccc(N)n1)C(=O)OCC
nt	?	nt	-1%	O=S(=O)(O)c1cc(Cl)cc(N=Nc2ccc(O)cc2O)c1O
0%	-2.0%	nt	-9%	Cc1nn(S(=O)(=O)c2ccc(F)cc2)c(C)c1S(=O)(=O)N1CCOCC1
0%	4.5%	-8	17%	CCN(CC)S(=O)(=O)c1ccc(Cl)c(NC(=O)COC(=O)c2ccc(O)cc2)c1

Other results:
miR-21 FLuc	Rango complex inh	GLA inh pH 4.5	Rango dissoc inh	mol
-35%	4.1%	-4	-10%	Cc1ccc(/C=C(\C#N)C(=O)NCC2CCCO2)o1 (centres undefined)
-25%	?	nt	28%	NC(=O)c1ccc(NC(=O)CNCc2ccccc2Cl)cc1
-6%	2.2%	5	0%	CCOC(=O)c1cn(-c2ccc([N+](=O)[O-])cc2)c2cc(Cl)c([N+](=O)[O-])cc2c1=O
-5%	-5.1%	-2	-6%	CCNC(=S)NNC(=O)c1cc(C2CC2)nc2ccccc12
-2%	3.6%	2	-8%	CC(C(=O)Nc1ccc(Cl)cc1)c1ncc(C(F)(F)F)cc1Cl (centres undefined)
2%	-0.8%	-3	-15%	O=C(O)COCC(=O)N1CCN(C2c3ccccc3-c3ccccc32)CC1
-7%	-3.5%	1	-4%	COc1ccnc(NCc2cccnc2)c1C#N
-6%	-2.7%	6	-3%	Cc1ccccc1CNS(=O)(=O)c1ccccc1[N+](=O)[O-]
-11%	7.3%	-10	9%	Nc1ccc(-c2n[nH]c(=O)c3ccccc23)cc1N
-6%	3.6%	1	0%	CCCCc1ccc(/C=C2/C(=O)ON=C2c2ccccc2)s1
1%	11%	nt	-5%	Cc1ccc(Cl)cc1NC(=O)CN1CCN(S(=O)(=O)N2CCC(C)CC2)CC1
-2%	1.4%	5	-1%	COc1cc(/C=C(\C#N)c2ccccn2)ccc1OCC(=O)Nc1ccc(Br)cc1
3%	-0.4%	nt	-4%	COc1ccccc1C(CC(=O)O)NS(=O)(=O)c1ccc2c(c1)N(C(C)=O)CC(C)O2 (centres undefined)
-12%	2.6%	nt	-14%	O=C1CC(N2CCN(c3ccccc3)CC2)C(=O)N1c1cccc(Br)c1 (centres undefined)
-10%	0.6%	nt	-14%	Oc1ccc(C=Nc2cccc3ccccc23)c(O)c1
-3%	-2.6%	0	-7%	Cc1cccc(C)c1NC(=S)N(CCCN1CCCCC1)Cc1ccco1
-16%	-4.2%	9	-5%	CCOC(=O)CNC(=O)c1ccc2[nH]c3ccccc3c2c1
0%	-4.3%	-2	5%	CCOC(=O)c1cn[nH]c1N

Screening data as filed in PubChem BioAssay.
